# rRNA inh HTS: inhibitors of bacterial rRNA selective over humanized ribosomes; hit rate 1.6% among 350,000; GFP signal change (wild-type ribosome), % (test concentration not listed); E. coli WT GFP vs humanized-ribosome RFP mutants, fluorescence, 24 h; active compounds read low; DMSO median 0, no signal -100;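 active means significant combined selectivity score with lowered wild-type GFP, culture density cut under 30%, mutant RFP and density less affected; inactive means any of these conditions unmet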; further: one replicate is shown; some compounds called inactive have numbers as strong as hits
# HNF4A DNA FP: change in binding of human HNF4 alpha to DNA; AID 1224865; HNF4a-FITC DNA binding, fluorescence polarization, 1 h; P41235; hit rate 0.3% among 360,000; activity change, % at 10 µM; in the data active means activity change above about 30%, passing the limit was not always enough;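 further: controls were the assay level and a saturating level of protein; the project sought stronger binding though the title names inhibitors; some compounds called inactive have numbers as strong as hits; positive values seem to mean higher polarization but the record does not say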
# UCH37 inh: human UCH37 deubiquitinating enzyme inhibition. inhibition, % (test concentration not listed). hit rate 0.33% among 330,000. purified proteasome/UCH37, Ub-AMC cleavage fluorescence. Q9Y5K5;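 active means mean of two replicates above 20%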;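 further: 0% = compound-free wells with enzyme and 100% = wells lacking proteasome; stock transfer was 100 nL into about 20 µL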
#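 Material: human UCH37 enzyme supplied as purified proteasome complex / Amount: 0.15 nM proteasome as dispensed / Buffer or medium: pH 7.4 Tris-HCl (50 mM) with ovalbumin, ATP-MgCl2, DTT / Times: preincubation 30 min, reaction 25 min, room temperature / Technique: AMC fluorescence from Ub-AMC cleavage, excitation 355 nm, emission 460 nm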
# Beta2AR agonist: agonists of human beta-2 adrenergic receptor inducing internalization; hit rate 0.43% among 340,000; Am2.2-beta2AR cells, FAP receptor internalization, flow cytometry; reference of the scale not given here; P07550; response, % (no concentration beside the values);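 active means response above a set limit, near 3 SD of response in nonfluorescent compounds, cut at about 42% in these data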;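 further: stock transfer was 100 nL into about 11 µL; a reference agonist was the positive control; negative values mostly stem from fluorescent compounds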
# Target sequence (P07550 whole entry, looked up): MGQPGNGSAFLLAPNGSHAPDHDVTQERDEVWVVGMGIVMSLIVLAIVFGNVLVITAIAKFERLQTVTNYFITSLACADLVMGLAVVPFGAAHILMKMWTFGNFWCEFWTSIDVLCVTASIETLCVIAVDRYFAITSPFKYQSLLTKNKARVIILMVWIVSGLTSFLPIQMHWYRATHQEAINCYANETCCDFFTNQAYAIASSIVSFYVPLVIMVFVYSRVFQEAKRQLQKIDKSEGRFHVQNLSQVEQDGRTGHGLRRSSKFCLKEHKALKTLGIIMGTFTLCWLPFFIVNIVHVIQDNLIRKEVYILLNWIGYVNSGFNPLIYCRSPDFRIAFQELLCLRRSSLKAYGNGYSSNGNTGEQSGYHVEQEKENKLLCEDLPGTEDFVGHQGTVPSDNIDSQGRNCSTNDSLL
# FGF22 binding: shifts melting point of recombinant human FGF22. recombinant FGF22 thermal shift, SYPRO orange fluorescence; percent of sucrose octasulfate shift, DMSO zero. calls only at 9.99 µM. Q9HCT0. hit rate 1.5% among 340,000;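 active means melting point raised past a set limit in the mean and every replicate; three in four hits are not shown here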
# Target sequence (Q9HCT0 whole entry, looked up): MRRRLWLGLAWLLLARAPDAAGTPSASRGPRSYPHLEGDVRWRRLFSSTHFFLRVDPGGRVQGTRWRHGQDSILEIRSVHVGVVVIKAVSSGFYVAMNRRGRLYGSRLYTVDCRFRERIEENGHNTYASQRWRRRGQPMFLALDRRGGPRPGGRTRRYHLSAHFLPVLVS
# Ecoli growth: blocks Escherichia coli growth; OD600, 23 h; active compounds read low; OD600 absorbance (concentration not given with the values); hit rate 0.21% among 330,000; AID 1053175;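 active means OD600 absorbance below the run mean of sample wells minus 3.6 SD, in any replicate, cut at about 0.56 in these data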;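 further: stock transfer was 300 nL into about 60 µL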
# ALR H2O2 inh: blocks human ALR sulfhydryl oxidase activity. purified ALR, DTT oxidation, H2O2 HRP-luminol luminescence. inhibition, % (concentration not given with the values). hit rate 3.8% among 290,000. P55789;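 active means mean and each replicate at 75% or more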;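 further: stock transfer was 7.5 nL into about 7.5 µL; 0% = neutral wells and 100% = wells with inactivated enzyme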
# Target sequence (P55789 whole entry, looked up): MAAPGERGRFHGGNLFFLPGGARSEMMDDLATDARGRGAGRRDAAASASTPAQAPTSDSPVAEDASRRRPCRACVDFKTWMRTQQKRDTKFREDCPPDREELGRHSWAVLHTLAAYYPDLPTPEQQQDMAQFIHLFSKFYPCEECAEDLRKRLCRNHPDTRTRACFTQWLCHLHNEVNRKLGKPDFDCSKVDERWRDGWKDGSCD
# rRNA inh HTS OD600: recorded beside rRNA inh HTS, whose call it bears; OD600 change, %; measured here: OD600 growth;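 optical density of the mix in the first replicate; 0 = DMSO median and -100 = no signal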
# rRNA inh HTS RFP: second read-out of rRNA inh HTS, no call of its own (marks repeat the call); RFP signal change, %; measured here: RFP humanized mutant strains;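 first replicate; 0 = DMSO median and -100 = no signal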
# An asterisk follows results filed as active; i = inactive; nt = not tested or not shown; & = joins results of further samples. These rows are one share of the data (hit frequency here may not be typical).
rRNA inh HTS	ALR H2O2 inh	HNF4A DNA FP	Ecoli growth	rRNA inh HTS RFP	UCH37 inh	rRNA inh HTS OD600	FGF22 binding	Beta2AR agonist	Structure
8	-2	2.0	0.66	3.4	-0.8	3	i	-6	CC(C)NC(=O)CC1C(=O)N(Cc2ccccc2)C(C)c2nc3ccccc3n21 (stereo unspecified)
4	nt	-0.9	nt	0.2	nt	4	i	nt	CC(=O)Nc1ccc(CNc2nc(NC(C)C)nc3ccsc23)cc1
nt	3	-1.7	0.7	nt	1.0	nt	nt	1	O=C1c2ccccc2C(=O)N1CCc1nn[nH]n1
5	nt	-3.3	0.67	3.4	1.3	0	i	-1	CCOC(=O)C1=C(C)N(CCCC(=O)O)C(=O)NC1C(CC)CC (stereo unspecified)
nt	-3	-2.4	nt	nt	nt	nt	nt	57*	C=CCc1ccc(OCCOc2ccc(/C=N/n3cnnc3)cc2OCC)c(OC)c1
11	-4	4.2	nt	-4.3	nt	11	i	-1	COc1ccc(/C=N/n2c(C)cc(C)cc2=O)cc1
7	nt	-1.0	nt	2.6	nt	9	i	nt	CCCc1c(C)nc2scc(-c3ccc(Cl)cc3)n2c1=O
0&2	-4	-1.2	0.7	-0.8&1.8	7.0	6&4	i	-9	CC(C)C[C@H](NC(=O)[C@@H]1Cc2ccccc2CN1C(=O)OC(C)(C)C)C(=O)NCC1CCC(C(=O)O)CC1 (stereo partly specified)
15	-2	1.4	0.7	3.0	-1.3	10	i	-1	COc1cc(-c2nnc(SCC(=O)NC3CCS(=O)(=O)C3)o2)cc(OC)c1OC (stereo unspecified)
-2	-6	1.3	0.7	-1.6	4.9	-14	i	-1	COc1ccc(C)cc1NC(=O)CN(C)S(=O)(=O)c1ccc2c(c1)CC(C)N2C(C)=O (stereo unspecified)
-7	nt	2.1	nt	-1.6	nt	-6	i	nt	O=C(CCNC(=O)N1CC(=O)Nc2ccccc21)NCc1ccccc1
-48	-17	1.2	0.69	-14	-6.8	-72	i	-2	O=C1c2cccc3cccc(c23)N1Cc1ccc(F)cc1
-7	-17	-3.1	0.67	-3.1	-73	0	nt	4	O=[N+]([O-])c1ccc(O)c(C=Nc2cccc3ccccc23)c1
7	-3	-2.4	0.68	2.0	0.7	7	i	-3	CCOCCOC(=O)NCCCCCCNC(=O)OCCOCC
nt	-5	2.6	0.65	nt	-234	nt	nt	-1	Clc1ccc(/C=C/c2nc3ccccc3[nH]2)cc1
nt	-126	1.3	0.68	nt	-47	nt	nt	9	CCn1cc(C2C3=C(CC(C)(C)CC3=O)N(c3ccccc3)C3=C2C(=O)CC(C)(C)C3)c(C)n1
-24*	3	-1.0	0.68	0.9*	-0.1	-5.8*	i	3	COC(=O)c1ccc(COc2ccc(C)cc2[N+](=O)[O-])o1
-40	-10	-1.0	nt	15	nt	-72	i	52*	CCOc1ccc2[nH]c(C(=O)N/N=C/c3ccc(OC)cc3)cc2c1
14	nt	-9.0	nt	11	nt	-3	i	nt	CCOC1=C2CN(S(=O)(=O)c3ccc(C)cc3)[C@@H](c3ccccc3)C[C@H]2[C@H]2C(=O)N(c3ccccc3)C(=O)[C@H]2C1
12	-2	1.5	0.7	2.9	2.8	16	i	-3	Cc1ccc(NC(=O)CCn2c(=O)c3cccn3c3ccccc32)cc1C
nt	22	3.1	0.66	nt	1.7	nt	nt	0	COc1ccc(CNc2nc3ccccc3n2Cc2ccccc2)cc1OC
-7	nt	-3.0	0.66	5.8	4.0	-17	nt	0	Cc1ccc(S(=O)(=O)N(C)c2ccc(C(=O)N(C)Cc3nc4ccccc4c(=O)[nH]3)cc2)cc1
2	-1	2.2	0.73	-6.0	5.1	12	i	1	Cc1cc2c(cc1S(=O)(=O)CCC(=O)NC1CCCCC1C)OCC(=O)N2 (stereo unspecified)
nt	94*	-0.4	0.74	nt	4.0	nt	nt	5	COc1ccc(N2CCN(C(=O)CCNS(=O)(=O)c3cccs3)CC2)cc1
nt	3	1.1	0.72	nt	4.2	nt	nt	-5	CCOC(=O)N1CCC(NC(=O)c2cc(C(=O)Nc3ccc(OCC)cc3)ccc2CO)CC1

# Single records, as listed above. Values in the order: rRNA inh HTS, ALR H2O2 inh, HNF4A DNA FP, Ecoli growth, rRNA inh HTS RFP, UCH37 inh, rRNA inh HTS OD600, FGF22 binding, Beta2AR agonist
# Profile of Cc1cc2c(cc1S(=O)(=O)CCC(=O)NC1CCCCC1C)OCC(=O)N2 (stereo unspecified) → 2, -1, 2.2, 0.73, -6.0, 5.1, 12, i, 1
# Profile of O=C(CCNC(=O)N1CC(=O)Nc2ccccc21)NCc1ccccc1 → -7, nt, 2.1, nt, -1.6, nt, -6, i, nt
# Profile of CCOCCOC(=O)NCCCCCCNC(=O)OCCOCC → 7, -3, -2.4, 0.68, 2.0, 0.7, 7, i, -3

# The list goes on:
rRNA inh HTS	ALR H2O2 inh	HNF4A DNA FP	Ecoli growth	rRNA inh HTS RFP	UCH37 inh	rRNA inh HTS OD600	FGF22 binding	Beta2AR agonist	Structure
8	nt	-0.7	0.63	1.6	3.6	22	i	-2	O=C(/C=C/c1ccccc1)Nc1cccc(C(=O)O)c1
22	-7	-3.6	0.72	1.4	8.1	0	i	-10	CCOc1ccc(Nc2nc(NCc3ccco3)nc(N)c2[N+](=O)[O-])cc1
nt	1	-5.4	0.68	nt	5.5	nt	nt	-3	CC(=O)OCCOc1nc(NC(C)C)nc(NC(C)C)n1
-12	-4	1.8	0.68	0.1	4.6	-9	i	5	CC(C)Cn1c(N)c(C(=O)COC(=O)Cc2cccc(C(F)(F)F)c2)c(=O)n(C)c1=O
8	nt	-2.1	0.71	2.5	2.4	10	i	2	Cc1ccc(CCN2CCN=C2Nc2ccccc2)cc1
nt	-1	-1.4	0.69	nt	0.1	nt	nt	13	CC(C)CN(C(=O)CN1CCN(c2ccccc2F)CC1)c1c(N)n(CC(C)C)c(=O)[nH]c1=O
nt	-2	-1.3	0.62	nt	0.7	nt	nt	4	O=C(NC1CCCCCCC1)c1ccc2c(c1)N(Cc1ccc(F)cc1)C(=O)CS2=O (stereo unspecified)
nt	-2	-2.0	0.74	nt	5.8	nt	nt	-2	COc1ccc(C(=O)OCCN2CCOCC2)cc1
nt	4	-5.2	0.72	nt	1.4	nt	nt	6	CCN1CCN(C(=O)CN(CCc2ccccc2)S(C)(=O)=O)CC1
-7	95*	-3.4	0.78	0.7	1.5	-13	i	3	CCOC(=O)c1c(NC(=O)C(C)Sc2c[nH]c3ccccc23)sc2c1CCC2 (stereo unspecified)
10	-1	0.5	0.68	-2.2	-134	6	i	-3	O=C(O)CCc1nn2c3ccccc3n(Cc3ccccc3)c2nc1=O
nt	-16	3.4	0.76	nt	-0.4	nt	nt	3	O=C(OCC(=O)N1CCCCC1)c1cc2ccccc2cc1O
1	-2	4.0	0.69	-2.3	0.8	-4	i	-8	O=C(NC1CCCN(Cc2ccc(Cl)cc2)C1)c1cccc(N2CCCC2=O)c1 (stereo unspecified)
nt	0	-0.9	0.65	nt	1.4	nt	nt	2	CCN1CCN(C(c2cccs2)C(C)NC(=O)c2cccnc2)CC1 (stereo unspecified)
11	nt	8.6	0.72	1.2	-0.6	16	i	-2	CCOC(=O)c1sc(=NC(=O)CCS(=O)(=O)c2ccccc2)n(C)c1C
-12	nt	-5.4	0.63	2.4	4.7	-29	i	6	Cc1cc(C)cc(NC(=O)CN2CCC(C(=O)c3ccccc3)CC2)c1
-5	-2	1.9	0.71	-4.1	1.4	-8	i	-5	COc1ccc(CCNC(=O)c2cc3c(cc2Cl)N2CCCCCC2=NS3(=O)=O)cc1
-2	nt	-0.1	0.68	-4.4	1.9	2	i	-3	Cc1cc(C(=O)OCC(=O)N2CCCCCC2)ccc1[N+](=O)[O-]
nt	10	-1.1	0.69	nt	0.8	nt	nt	18	CCOC(=O)c1c(O)c2c(n(Cc3ccco3)c1=O)CCCC2
nt	-13	-1.2	0.65	nt	1.3	nt	nt	2	Cc1c([N+](=O)[O-])nnn1-c1cc(Cl)cc(Cl)c1
13	-18	-1.9	0.73	0.4	3.1	9	i	1	CCCc1cc(=O)oc2cc(OCc3ccc(OC)cc3)c(Cl)cc12
nt	nt	0.4	0.69	nt	-2.0	nt	nt	-12	Cc1c(C(=O)N(C)Cc2ccccc2)oc2ccc(S(=O)(=O)N3CCCC3)cc12
nt	-7	-1.8	0.72	nt	-2.8	nt	nt	0	C=CCn1c(SCC(=O)NC2CCCc3ccccc32)nnc1-c1ccncc1 (stereo unspecified)
-4	99*	5.8	0.71	-3.7	1.9	-7	i	4	COc1ccc(NC2CCCN(C(=O)c3ccc(OC)cc3OC)C2)cc1 (stereo unspecified)
13	16	1.8	0.66	2.2	-5.7	9	i	-2	Cc1sc(NC(=O)CN(Cc2ccccc2)C(=O)C2CC2)c(C(N)=O)c1C
nt	11	7.3	nt	nt	nt	nt	nt	7	Cc1ccc2[nH]c3c(N4CCc5ccccc5C4)ncnc3c2c1
nt	-4	-0.4	0.63	nt	1.2	nt	i	3	NNC(=S)Nc1ccc(C(F)(F)F)cc1Cl
1	-2	-5.1	0.72	-1.4	3.3	-10	i	-7	CC(C)N(Cc1nc(-c2ccc(Cl)cc2)no1)C(=O)CCC1CCCC1
6	nt	0.2	0.71	-1.6	0.0	1	i	-3	CCN(c1ccccc1)S(=O)(=O)c1ccc(OC)c(NC(=O)COc2ccc(C(C)=O)cc2)c1
nt	27	4.6	nt	nt	nt	nt	nt	3	CC(C)(C)c1nnc(N/N=C/c2ccccc2O)n(N)c1=O
0	-2	2.5	nt	-4.1	nt	6	i	-5	CN(C)c1ccc(/C=N/NC(=O)c2ccc(-n3cnnn3)cc2)cc1
-29	0	-0.5	0.68	-15	5.7	-44	nt	-3	O=C(COc1ccccc1Cl)Nc1ccc(C(=O)c2ccc(C(=O)O)cc2)cc1
-29*	-4	-1.0	0.67	0.4*	4.1	-13*	i	3	CC(C)Oc1cccc(C(=O)C2CCCN(C(=O)c3cc(C(F)(F)F)[nH]n3)C2)c1 (stereo unspecified)
6	-4	5.2	0.69	-2.2	0.6	13	i	4	Cc1ccc(S(=O)(=O)N2CCOCC2)cc1NC(=O)COC(=O)CCn1c(C)csc1=O
5	0	1.0	0.79	-2.8	2.2	-1	i	-8	CCC[C@@H]1C[C@@]1(CCC)[C@@H](NC(=O)c1ccccc1)c1ccc(C(=O)OC)cc1
nt	5	-2.5	0.66	nt	-87	nt	i	2	CC(NC(=O)OCc1ccccc1)C(=O)Oc1cc2oc(=O)cc(-c3ccccc3)c2cc1Cl (stereo unspecified)
28	nt	-1.4	0.71	0.7	-0.6	9	i	2	O=[N+]([O-])c1ccc(C2CNC(c3ccccc3)O2)cc1 (stereo unspecified)
nt	6	0.2	0.73	nt	0.1	nt	nt	-3	COc1ccc(OCc2nc(N)nc(Nc3ccc(C)cc3)n2)cc1
nt	-12	2.5	nt	nt	nt	nt	nt	2	CN(C)c1ccnc(-n2cccc2/C=N/OCc2ccccc2)c1C#N
-18	1	6.5	0.69	-5.9	1.8	-20	i	16	COc1ccc(CCOC(=O)CNC(=O)c2ccc(Cl)cc2Cl)cc1
2	-13	1.0	0.65	0.9	3.1	8	i	-1	COC1c2ccccc2C(=O)N1Cc1ccc(F)cc1 (stereo unspecified)
12	1	0.1	nt	21	nt	-7	i	12	COc1cccc(N/C(=N/C(=S)Nc2ccc(C)cc2C)Nc2nc(C)cc(C)n2)c1
nt	-11	0.7	0.72	nt	3.5	nt	nt	7	COC(=O)COC(=O)c1ccc(Oc2nc(OC)nc(N(C)C)n2)cc1

# High-throughput results from PubChem BioAssay.
